p53 nuclei: nuclear p53 accumulation, HPV+ cells – imaging, p53-positive nuclei imaging, 24 h, 48 h (AID 1508601); p53-positive nuclei imaging, 48 h; hits give high values; some inactives read as strong as hits; p53-positive nuclei, normalised, % at 11 µM unless noted; 5,700 tested, 1% active;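 active means mean of two plates above 50% at 24 h or at 48 h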;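 further: HPV-positive HeLa cells with a fluorescent p53 stability reporter; 0% = vehicle and 100% = proteasome inhibitor control; doses worked out from stocks diluted about 900-fold with the highest of each compound shown; many of its hits are not listed in these tables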
p53 nuclei cells 24 h: second read-out of p53 nuclei, no call of its own (marks repeat the call); nuclei count, normalised, %; measured here: cell number at 24 h;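 100% = vehicle wells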
p53 nuclei p53 24 h: further read-out of p53 nuclei, marked with its call; p53-positive nuclei, normalised, %; measured here: p53 positive nuclei at 24 h;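 0% = vehicle and 100% = positive control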
p53 nuclei cells 48 h: second read-out of p53 nuclei, no call of its own (marks repeat the call); nuclei count, normalised, %; measured here: cell number at 48 h;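 100% = vehicle wells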
Active calls of the source: *; [ ] = remark or other dose. These rows are one share of the data; rates above refer to the full screens.

item	Molecule	p53 nuclei	p53 nuclei cells 24 h	p53 nuclei p53 24 h	p53 nuclei cells 48 h
1	CNc1nc(Nc2cnn(C3CCN(C4COC4)CC3F)c2Cl)ncc1C(F)(F)F (stereo not given)	0.2	105.5	0.1	109.0
2	COc1cc(C=O)ccc1O	-0.2[3.7 µM]	117.0	-0.5	116.8
3	CC1CCNC(=O)c2cc3ccc(C(=O)Nc4nc5ccccc5n4CCCN(C)C)cc3n21 (stereo not given)	-0.1	105.6	-0.1	119.4
4	O=C(O)c1cc(=O)c2ccccc2o1	-0.2[3.7 µM]	113.1	-0.3	103.8
5	COc1cc2nccc(Oc3ccc(NC(=O)C4(C(=O)Nc5ccc(F)cc5)CC4)cc3)c2cc1OC	0.1	78.7	-0.2	76.6
6	CNS(=O)(=O)CCc1ccc2[nH]cc(C3CCN(C)CC3)c2c1	-0.5[3.7 µM]	113.7	-0.3	112.8
7	Cc1ncc(-c2ccnc(Nc3ccc(S(C)(=O)=O)cc3)n2)n1C(C)C	49.9	37.6	13.6	24.6
8	CC(C)C1C(=O)N(S(C)(=O)=O)[C@H]2CCN(C(=O)C=CCN3CCCCC3)[C@H]12 (stereo not given in full)	0.0	113.7	0.0	105.4
9	COc1cc2nccc(Oc3ccc(NC(=O)NC4CC4)c(Cl)c3)c2cc1C(N)=O	-0.6[3.7 µM]	76.9	-0.2	78.8
10	CCn1c(-c2nonc2N)nc2c(C#CC(C)(C)O)ncc(OCC3CCCNC3)c21 (stereo not given)	0.1	117.4	0.1	116.0
11	CCc1c2c(nc3ccc(OC(=O)N4CCC(N5CCCCC5)CC4)cc13)-c1cc3c(c(=O)n1C2)COC(=O)[C@@]3(O)CC	-0.2[3.7 µM]	44.3	-0.5	30.6
12	Cn1cc(-c2ccc3nnc(Sc4ccc5ncccc5c4)n3n2)cn1	-0.2	91.6	0.1	99.2

An excerpt of these results, with two lines to a compound:
Below each SMILES: p53 nuclei	p53 nuclei cells 24 h	p53 nuclei p53 24 h	p53 nuclei cells 48 h
7	Cc1ncc(-c2ccnc(Nc3ccc(S(C)(=O)=O)cc3)n2)n1C(C)C
    49.9	37.6	13.6	24.6
8	CC(C)C1C(=O)N(S(C)(=O)=O)[C@H]2CCN(C(=O)C=CCN3CCCCC3)[C@H]12 (stereo not given in full)
    0.0	113.7	0.0	105.4

More entries:
item	Molecule	p53 nuclei	p53 nuclei cells 24 h	p53 nuclei p53 24 h	p53 nuclei cells 48 h
13	c1cn2cc(-c3ccc4cn[nH]c4c3)nc(Nc3ccc(N4CCOCC4)cc3)c2n1	0.4	96.1	0.1	99.4
14	CC1(C)C(OC2OC(C(=O)O)C(O)C(O)C2OC2OC(C(=O)O)C(O)C(O)C2O)CC[C@@]2(C)C1CC[C@]1(C)C2C(=O)C=C2C3C[C@@](C)(C(=O)O)CC[C@]3(C)CC[C@]21C (stereo not given in full)	-0.1	109.6	-0.2	110.3
15	CCC1OC(=O)CC(O)C(C)C(OC2OC(C)C(O)C(N(C)C)C2O)C(CCN2CC(C)CC(C)C2)CC(C)C(=O)C=CC(C)=CC1COC1OC(C)C(O)C(OC)C1OC (stereo not given)	-0.1[3.7 µM]	116.0	-0.3	113.1
16	Nc1ncnc2c1c(-c1cccc(OCc3ccccc3)c1)cn2C1CC(CN2CCC2)C1 (stereo not given)	-0.5[3.7 µM]	100.8	-0.2	95.6
17	CC(C)c1nn(-c2c(Cl)cccc2Cl)c2nc(Cc3ccc(OCCO)cc3)[nH]c(=O)c12	34.7	26.4	4.8	18.4
18	CNCc1ccc(-c2[nH]c3cc(F)cc4c3c2CCNC4=O)cc1	-0.8	91.8	-0.2	91.6
19	CC1(C)CC(=O)c2c(C(F)(F)F)nn(-c3ccc(C(N)=O)c(NC4CCC(O)CC4)c3)c2C1 (stereo not given)	0.0[3.7 µM]	46.8	-0.2	37.0
20	COc1cc2c(NC3CCN(CC4CCCCC4)CC3)nc(N3CCCN(C(C)C)CC3)nc2cc1OCCCN1CCCCC1	0.2	29.2	-0.1	20.4
21	OCCn1cc(-c2ccc3c(c2)CCC3=NO)c(-c2ccncc2)n1	0.2	93.9	0.2	91.7
22	CN(C)C(=O)c1cc2cnc(Nc3ccc(N4CCNCC4)cn3)nc2n1C1CCCC1	-0.1	102.2	-0.1	101.4
23	CNC(=O)c1cc(Oc2ccc(NC(=O)Nc3ccc(Cl)c(C(F)(F)F)c3)c(F)c2)ccn1	-0.1	106.6	0.0	113.3
24	CCCOc1ccc(C(=O)OCCN(CC)CC)cc1N	0.1[3.7 µM]	117.4	-0.2	121.4
25	O=C(Nc1ccccc1Br)NC1CCN(c2ccc(C(F)(F)F)cn2)C1 (stereo not given)	-0.2[3.7 µM]	101.9	-0.3	96.3
26	CCOc1nc2cccc(C(=O)O)c2n1Cc1ccc(-c2ccccc2-c2noc(=O)[nH]2)cc1	-0.1	103.1	-0.1	99.0
27	CCN1CCN(c2ccc(Nc3cc(N(C)C(=O)Nc4c(Cl)c(OC)cc(OC)c4Cl)ncn3)cc2)CC1	-0.1	82.6	-0.1	84.1
28	COc1ccc(-c2ccc3c(N4CCOCC4C)nc(N4CCOCC4C)nc3n2)cc1CO (stereo not given)	-0.3	77.8	-0.2	75.9
29	CN(C)CC=CC(=O)Nc1cc2c(Nc3ccc(F)c(Cl)c3)ncnc2cc1OC1CCOC1 (stereo not given)	5.5	44.8	4.3	30.1
30	CCN(CC)CCN(Cc1ccc(-c2ccc(C(F)(F)F)cc2)cc1)C(=O)Cn1c(SCc2ccc(F)cc2)nc(=O)c2c1CCC2	12.5	35.1	11.9	24.0
31	COC(=O)C1=C(C)NC(C)=C(C(=O)OCCN2CCN(C(c3ccccc3)c3ccccc3)CC2)C1c1cccc([N+](=O)[O-])c1 (stereo not given)	-0.1[3.7 µM]	108.2	-0.2	101.8
32	CCOC1OC(=O)CC1NC(=O)C1CCCN1C(=O)C(NC(=O)c1ccc(N)c(Cl)c1)C(C)(C)C (stereo not given)	-0.4[3.7 µM]	104.8	-0.5	101.0
33	COc1cc(C2Oc3cc(C4Oc5cc(O)cc(O)c5C(=O)C4O)ccc3OC2CO)ccc1O (stereo not given)	-0.2[3.7 µM]	104.4	-0.3	109.5
34	CNC(=O)c1cc(COc2nnc(Nc3ccc(Cl)cc3)c3ccoc23)ccn1	0.3[3.7 µM]	106.7	0.2	110.8
35	CC1C[C@H]2[C@@H]3CCC4=CC(=O)C=C[C@]4(C)[C@]3(Cl)C(O)C[C@]2(C)[C@]1(OC(=O)c1ccco1)C(=O)CCl (stereo not given in full)	0.1[3.7 µM]	102.4	-0.2	93.1
36	CCC(=O)Nc1cccc(Oc2nc(Nc3ccc(N4CCN(C)CC4)cc3OC)ncc2Cl)c1	-0.1	95.4	0.0	99.5
37	Cc1cc2c(F)c(Oc3ncnn4cc(OCC(C)O)c(C)c34)ccc2[nH]1 (stereo not given)	0.0	88.0	0.2	74.6
38	Cc1ccccc1N1CCN(CCc2nnc3n2CCCC3)CC1	-0.1	98.1	0.0	105.1
39	NS(=O)(=O)c1ccc(N2CCCCS2(=O)=O)cc1	-0.2	100.2	-0.2	102.7
40	Nc1ncnc2c1c(-c1ccc(Oc3ccccc3)cc1)cn2C1CCCC1	-0.1	100.4	0.0	96.9
41	O=C(Nc1ncc(SCCN2CCCC2)s1)[C@]1(c2ccc(S(=O)(=O)C3CC3)cc2)CC1C1CCCCC1 (stereo not given in full)	0.0[3.7 µM]	111.3	0.3	106.6
42	Oc1cc(-c2nc(-c3ccccc3)[nH]c2-c2ccncc2)ccc1Cl	-0.2	94.9	-0.1	91.2
43	CN(C)N(C)C(=O)[C@@]1(Cc2ccccc2)CCCN(C(=O)C(Cc2c[nH]c3ccccc23)NC(=O)C(C)(C)N)C1 (stereo not given in full)	-0.2	101.0	0.1	102.7
44	COCCCOc1cc(CC(CC(N)C(O)CC(C(=O)NCC(C)(C)C(N)=O)C(C)C)C(C)C)ccc1OC (stereo not given)	-0.1	107.6	-0.1	103.6
45	CCc1cc2c(cc1N1CCC(N3CCOCC3)CC1)C(C)(C)c1[nH]c3cc(C#N)ccc3c1C2=O	-0.1	104.9	0.0	105.2
46	CN1C(=O)NC(Cc2c[nH]c3c(Cl)cccc23)C1=O (stereo not given)	0.0	81.0	0.1	83.4
47	O=C(Nc1cccc(Cl)c1)Nc1ncc(CCNc2ncnc3ccsc23)s1	-0.4[3.7 µM]	30.9	0.1	24.1
48	O=C(Nc1ccc2[nH]nc(-c3ccncc3)c2c1)C1CCN(CC(=O)N2CCN(c3ccc(-c4ncccn4)cc3)CC2)C1 (stereo not given)	-0.1	85.0	-0.1	91.6
49	Cn1cnc(-c2cc3nccc(Oc4ccc(NC(=S)NC(=O)Cc5ccccc5)cc4F)c3s2)c1	0.0	77.5	0.0	69.1
50	CCCCOc1cc(C(=O)OCCN(CC)CC)ccc1N	0.0[3.7 µM]	115.1	-0.2	113.2
51	O=C(O)c1ccc(-n2nc(-c3ccccc3O)nc2-c2ccccc2O)cc1	-0.1[3.7 µM]	78.5	-0.3	95.9
52	O=C(O)c1ccc(Nc2ncc3c(n2)-c2ccc(Cl)cc2C(c2c(F)cccc2F)=NC3)cc1	0.9	52.4	0.2	31.4
53	COCCOc1ccc2c(c1)ncn2-c1ccc2cccc(N3CCC(N)CC3)c2n1	27.5	47.9	7.0	37.4
54	O=C(O)c1ccccc1NC(=O)N1CCC(c2ccccc2C(F)(F)F)CC1	0.0	109.0	0.0	101.5
55	Cc1cc(=O)oc2cc(O)ccc12	-0.1[3.7 µM]	114.9	-0.3	109.8
56	CC#CCn1c(N2CCCC(N)C2)nc2c1c(=O)n(Cc1nc(C)c3ccccc3n1)c(=O)n2C (stereo not given)	-0.1	118.9	-0.1	109.2

Full records, quoted from the list. Values in the order: p53 nuclei | p53 nuclei cells 24 h | p53 nuclei p53 24 h | p53 nuclei cells 48 h
`O=C(O)c1ccccc1NC(=O)N1CCC(c2ccccc2C(F)(F)F)CC1` reads 0.0 | 109.0 | 0.0 | 101.5
`O=C(O)c1ccc(-n2nc(-c3ccccc3O)nc2-c2ccccc2O)cc1` reads -0.1[3.7 µM] | 78.5 | -0.3 | 95.9
`COCCOc1ccc2c(c1)ncn2-c1ccc2cccc(N3CCC(N)CC3)c2n1` reads 27.5 | 47.9 | 7.0 | 37.4
`CC#CCn1c(N2CCCC(N)C2)nc2c1c(=O)n(Cc1nc(C)c3ccccc3n1)c(=O)n2C` (stereo not given) reads -0.1 | 118.9 | -0.1 | 109.2
`Cc1cc(=O)oc2cc(O)ccc12` reads -0.1[3.7 µM] | 114.9 | -0.3 | 109.8

Of the compounds above, these have an aryl thioether with sulfur outside any ring.
item	Molecule	p53 nuclei	p53 nuclei cells 24 h	p53 nuclei p53 24 h	p53 nuclei cells 48 h
12	Cn1cc(-c2ccc3nnc(Sc4ccc5ncccc5c4)n3n2)cn1	-0.2	91.6	0.1	99.2
30	CCN(CC)CCN(Cc1ccc(-c2ccc(C(F)(F)F)cc2)cc1)C(=O)Cn1c(SCc2ccc(F)cc2)nc(=O)c2c1CCC2	12.5	35.1	11.9	24.0
41	O=C(Nc1ncc(SCCN2CCCC2)s1)[C@]1(c2ccc(S(=O)(=O)C3CC3)cc2)CC1C1CCCCC1 (stereo not given in full)	0.0[3.7 µM]	111.3	0.3	106.6
